VCAM-1 up: boosters of cytokine-driven VCAM-1 levels – cell-based, plate reader, pooled HUVEC, TNFa stimulus (AID 455) | HUVEC TNFa-induced VCAM-1 immunofluorescence, plate reader; numbers were filed only for top-ranked candidate wells | augmentation, % at 5 µM | hit rate 0.2% among 10,000;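 active = a compound raising TNF-alpha-driven VCAM-1 surface staining, with its hit status upheld on visual or statistical review; inactive = the rest, including hits rejected on review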;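 note: 0% = TNFa with vehicle and 100% = strongest image-checked hit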
Proteasome disasm: blocks ATP-dependent breakdown of the yeast 26S proteasome | anti-FLAG beads, GFP-proteasome disassembly, flow cytometry | inhibition of disassembly, % (test concentration not listed) | hit rate 0.2% among 24,000 | AID 751;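 active = above 40%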;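 note: plate controls were ATP control with full disassembly for no effect and ATP-gamma-S intact proteasomes for full effect; higher percent means more bead fluorescence retained so stronger block of disassembly; stock transfer was 100 nL into about 10 µL; wells with too few beads may also be inconclusive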
* hit, by the source's call; i = inactive; . = no result given. Not all compounds are listed; the hit share may differ from the screen's.

SMILES	VCAM-1 up	Proteasome disasm
COC(=O)C(C)NS(=O)(=O)c1ccc(NC(C)=O)cc1 (stereo not given)	.	0.4
O=C(COc1ccccc1)Nc1nc2ccccc2[nH]1	i	0.9
CCC(Sc1nc(C)cc(=O)[nH]1)C(=O)Nc1ccc(Cl)cn1 (stereo not given)	.	0.3
O=C(NCCc1ccccc1)C1CCN(c2nc3ccccc3o2)CC1	.	-0.2
CC(C)(C)n1ncc2c(=O)n(CC(=O)NCc3ccccc3)cnc21	i	-4.8
O=C(Nc1ccc2c(c1)OCO2)c1ccc(CN2CCOCC2)cc1	i	-1.9
Cc1ccc(NC(=O)Cn2cccc2)cc1C	.	0.6
O=C(Nc1nccs1)c1cccc(NC(=O)C2CC2)c1	i	-1.3
CCN(CCCNC(=O)CN(C)S(=O)(=O)c1cccc2nsnc12)c1cccc(C)c1	.	2.0
CCN(C(=O)c1cn(CC)c(=O)c2cc(OC)c(OC)cc12)c1ccccc1C	.	-0.9
CCNc1ccc(C(=O)OCC)cc1NC(=O)c1cc(S(=O)(=O)N2CCOCC2)ccc1C	i	2.1
CC(=O)OC1CC2(C)C(=O)CCC2C2CCc3cc(O)ccc3C12 (stereo not given)	.	2.8
COc1ccc(OC)c(C2CC(=O)N3CN(c4ccccc4)CSC3=C2C#N)c1 (stereo not given)	.	0.5
CCN(CC)CCCNC(=O)c1cn(CCOC)c(=O)c2c1c1ccccc1n2C	.	-2.5
Cc1cc(C)n(C(=O)C23CC4CC(CC(C4)C2)C3)n1	i	2.5
CCOc1ccc(C2CC(c3cccc(C)c3)n3nc(N)nc3N2)cc1 (stereo not given)	.	0.7
COc1ccc(CCNS(=O)(=O)c2ccc3c(c2)OCCO3)cc1	i	0.0
CCOC(=O)C(C)n1cnc2c(nnn2Cc2ccc(Cl)cc2)c1=O (stereo not given)	.	0.4
CCOC(=O)c1nnn(CC(=O)Nc2cc(Cl)ccc2C)c1C(=O)OCC	.	-0.5
COc1cc(C2N3CC4(C)CN2CC(C)(C3)C4)ccc1O (stereo not given)	i	0.3
O=S(=O)(Cc1ccccc1)N1CCn2c(nc3ccccc32)C1	.	2.8
CCCN(CCC)CCCNS(=O)(=O)c1cc(Br)cc2c1N(C(C)=O)CC2	.	1.5
O=C(CN1C(=O)COc2ccccc21)NCCN1CCc2ccccc2C1	i	-0.9
O=C(NCCc1ccc(Cl)cc1)C1CCN(C(=O)c2sccc2-n2cccc2)CC1	.	1.8
Cn1c(=O)oc2cc(S(=O)(=O)N3CCCC(C(=O)NCC4COc5ccccc5O4)C3)ccc21 (stereo not given)	i	0.8

A different layout for some results above.
VCAM-1 up,Proteasome disasm,smiles
.,-0.2,O=C(NCCc1ccccc1)C1CCN(c2nc3ccccc3o2)CC1
i,-4.8,CC(C)(C)n1ncc2c(=O)n(CC(=O)NCc3ccccc3)cnc21
i,-1.9,O=C(Nc1ccc2c(c1)OCO2)c1ccc(CN2CCOCC2)cc1
.,0.6,Cc1ccc(NC(=O)Cn2cccc2)cc1C
i,-1.3,O=C(Nc1nccs1)c1cccc(NC(=O)C2CC2)c1
.,2.0,CCN(CCCNC(=O)CN(C)S(=O)(=O)c1cccc2nsnc12)c1cccc(C)c1

Ordered by the number under Proteasome disasm (descending): some entries from above.
SMILES	VCAM-1 up	Proteasome disasm
CCN(CCCNC(=O)CN(C)S(=O)(=O)c1cccc2nsnc12)c1cccc(C)c1	.	2.0
COC(=O)C(C)NS(=O)(=O)c1ccc(NC(C)=O)cc1 (stereo not given)	.	0.4
CCN(CC)CCCNC(=O)c1cn(CCOC)c(=O)c2c1c1ccccc1n2C	.	-2.5

(listing goes on)
SMILES	VCAM-1 up	Proteasome disasm
O=C(Cn1nc(Cc2cccnc2)c2ccccc2c1=O)Nc1ccc2c(c1)OCO2	i	-0.3
C=CCc1ccccc1OCC(O)CN1CCN(Cc2ccc3c(c2)OCO3)CC1 (stereo not given)	i	2.8
CCOC(=O)N1CCN(S(=O)(=O)c2ccc(C(=O)Nc3ccc(F)cc3F)cc2)CC1	.	-1.0
COC(=O)c1cn(C)c2ccc(S(=O)(=O)N3CC(C)CC(C)C3)cc2c1=O (stereo not given)	.	-3.4
CCCCCn1c(CN2CCN(Cc3ccccc3)CC2)nc2c1c(=O)[nH]c(=O)n2C	.	1.4
O=C(c1cnc2n(c1=O)CCS2)N1CCN(c2ccc(Cl)c(Cl)c2)CC1	.	0.0
COc1ccc(OC)c(C2CC(=O)N3CN(c4ccc(C)c(Cl)c4)CSC3=C2C#N)c1 (stereo not given)	.	-0.1
CC(C)(C)n1ncc2c(=O)n(CC(=O)OCc3ccccc3)cnc21	.	-0.8
COc1ccc(S(=O)(=O)N2CCCN(CC(=O)Nc3cc(NC(C)=O)ccc3OC)CC2)cc1	.	0.7
Cc1nc2nc[nH]n2c(=O)c1NC(=O)c1c(-c2ccccc2Cl)noc1C	.	0.1
O=C(NCc1ccccn1)c1cc2ccccn2n1	.	-2.2
COc1ccc(Cl)cc1S(=O)(=O)N1CCN(C)CC1	.	4.3
O=C1C2CCCN2C(c2ccccc2)N1c1ccc(Cl)cc1 (stereo not given)	i	0.1
COc1ccc(-c2noc(CCC(=O)Nc3cc(Cl)c(OC)cc3OC)n2)cc1	.	1.2
O=C1Nc2cccnc2Sc2ccccc21	.	0.6
CCCCOC(=O)C1=C(C)Nc2ncnn2C1c1cccc(OC)c1OC (stereo not given)	i	0.1
COc1ccc(-n2c(=O)cc(N3CCN(c4ccccc4F)CC3)[nH]c2=O)cc1	.	-2.0
CCN(CC)S(=O)(=O)N1CCC(C(=O)NC2CCCc3ccccc32)CC1 (stereo not given)	i	-0.6
COCC(C)NC(=O)c1noc2c1CCc1cc(OC)ccc1-2 (stereo not given)	.	0.1
CC(=O)N(c1ccc2oc(=O)sc2c1)S(=O)(=O)c1ccccc1	.	0.0
Cn1c(=O)n(CCc2ccccc2)c(=O)c2c1nc1n2CCN1Cc1ccco1	.	1.3
O=C(CSc1nnc(C2COc3ccccc3O2)o1)N1CCOCC1 (stereo not given)	.	0.2
COCCCn1nnnc1SCC(=O)Nc1nc(C)c(C)s1	i	0.5
CCOC(=O)c1oc2ccccc2c1NC(=O)C1CCCCC1	.	1.0
COc1ccc(C(=O)c2oc3ccc(Br)cc3c2NC(C)=O)cc1	.	-0.8

Further records follow.
SMILES	VCAM-1 up	Proteasome disasm
Cc1ccc(C)c(N2CCN(C(=O)C3CCN(S(=O)(=O)c4c(C)noc4C)CC3)CC2)c1	i	0.4
O=C(Nc1ccc2oc(=O)ccc2c1)c1cccnc1	i	-1.4
COC(=O)CCN(C(=O)c1ccc2c(c1)OCO2)c1ccccn1	i	1.2
CCC1CCCCN1CCCNC(=O)Cn1nc(-c2ccc(C)cc2)ccc1=O (stereo not given)	.	-0.2
COc1ccc(C(NC(=O)C(C)(C)C)NC(=O)C(C)(C)C)cc1	i	-2.3
CCCCC(c1nnnn1CS(=O)(=O)c1ccc(C)cc1)N1CCN(c2ccccc2)CC1 (stereo not given)	i	-1.6
O=C(c1nc2n(n1)C(c1ccc(Cl)cc1)C=C(c1ccccc1)N2)N1CCOCC1 (stereo not given)	i	3.3
Cc1noc(C)c1S(=O)(=O)N(CC(=O)N1CCCC1)c1ccc(C(C)C)cc1	.	-0.7
c1cc(CNc2ccc3c(c2)OCO3)ccn1	i	0.2
CCOC(=O)C1CCCN(c2nc3ccccc3nc2C(C#N)C(=O)NCc2ccccc2)C1 (stereo not given)	i	5.3
CCN(CC)CCCNC(=O)C1CCN(C(=O)c2cc3sccc3n2Cc2ccc(F)cc2)CC1	.	0.5
COc1ccc(Cl)c(N2CCN(CCCNC(=O)Nc3ccc(C)cc3)CC2)c1	i	7.2
COc1cc2cc(C(c3nnnn3C3CCCC3)N(C)C3CCCCC3)c(=O)[nH]c2cc1OC (stereo not given)	i	1.1
COc1ccccc1NC(=O)Cn1cnc2sc(C(=O)NCc3ccco3)c(C)c2c1=O	.	0.7
CCOc1ccccc1Nc1nc2ccccc2n2cnnc12	.	-0.2
CCOc1ccccc1N1CSC2=C(C#N)C(c3c(OC)ccc4ccccc34)CC(=O)N2C1 (stereo not given)	.	2.5
CCOC(=O)N1CCC(NC(=O)C2CCCN(C(=O)c3cc4sccc4n3C)C2)CC1 (stereo not given)	i	-0.3
CN1/C(=C\C(=O)Nc2cccnc2)c2ccccc2CC1(C)C	i	-4.4
CCOC(=O)CSc1nnc(CNC(=O)c2cccs2)n1-c1ccccc1	.	0.0
COc1ccc(-c2nn3c(-c4ccncc4)nnc3s2)cc1OC	i	-5.1
COc1cc(OC)cc(-c2nnc(Nc3nc4c(F)cccc4s3)o2)c1	i	0.9
CCOC(=O)N1CCC(NC(=O)CCC(=O)N2CC(C)Oc3ccc(Cl)cc32)CC1 (stereo not given)	i	0.0
Cn1c(COc2ccccc2)nnc1SCC(=O)Nc1ccc(N2CCOCC2)c(Cl)c1	i	0.6
Cc1cc(N2CCN(C)CC2)nc2ccc(NC(=O)c3ccc(Br)o3)cc12	.	-0.8
CCOCC(=O)Nc1c(C(=O)Nc2ccc(OC)cc2OC)oc2ccccc12	i	0.0

(cont.)
SMILES	VCAM-1 up	Proteasome disasm
O=C(NCCCN1CCCC1=O)c1cccnc1	i	-13
COc1ccc(C(=O)Nc2ccc(Cl)c(Cl)c2)c(OC)n1	i	-0.5
Cn1c(=O)cc(OCCCC(=O)Nc2cccnc2)c2ccccc21	.	-3.4
Cc1ccc(NC(=O)c2cc(S(=O)(=O)N3CCC4(CC3)OCCO4)ccc2F)cc1	i	0.0
COc1ccccc1CCNC(=O)c1cnn2c(C(F)F)cc(C)nc12	.	2.4
COc1cccc(C(=O)N(c2ccc(OC)cc2OC)C2C=CS(=O)(=O)C2)c1 (stereo not given)	.	-0.8
CCCCOC(=O)c1ccc(NC(=O)c2ocnc2C)cc1	.	-0.3
Cc1c(C(=O)Nc2ccc(F)cc2)oc2ccc(S(=O)(=O)N3CCC4(CC3)OCCO4)cc12	.	-1.3
CCN(CC)S(=O)(=O)c1ccc2c(c1)c(=O)c(C(=O)NCCCN(C)c1ccccc1)cn2C	.	1.2
COC(=O)Cn1cnc2c(nnn2Cc2ccc(Cl)cc2)c1=O	.	1.8
CCSc1ccccc1C(=O)NCc1ccc(S(N)(=O)=O)cc1	i	1.8
Cc1cc(C(=O)Nc2ccccc2C(F)(F)F)no1	.	0.7
COc1ccccc1NC(=O)C1CCCCN1S(=O)(=O)c1ccc(F)cc1 (stereo not given)	.	-0.1
CCOC(=O)C1=C(C)Nc2nc(SCc3cccnc3)nn2C1c1ccc(OC)cc1 (stereo not given)	.	0.4
O=C(CCc1nc(-c2ccccc2F)no1)Nc1ccc(Oc2ccccc2)cc1	.	-0.3
CC(CCc1ccccc1)NC(=O)CN1CCOc2ccccc21 (stereo not given)	.	-0.1
CC1CCCCN1C(=O)CSc1nnc(-c2ccc(Cl)s2)o1 (stereo not given)	.	-1.0
CC1CCCCC1NC(=O)c1ccc(CNc2c(N3CCCC3)c(=O)c2=O)cc1 (stereo not given)	.	-1.6
Cn1cc(Cl)c(C(=O)N(Cc2ccccc2)c2ccccn2)n1	i	0.3
CCSc1nnc(NC(=O)CSc2nnc(Cc3cccn3C)n2-c2ccc(C)cc2)s1	i	0.7
COC(=O)C1=C(C(=O)c2ccc(C)cc2)C(c2ccc(O)c(OC)c2)n2nnnc2N1 (stereo not given)	.	-2.6
CC(=O)Nc1sc2c(c1CN1CCN(c3ccccn3)CC1)CCCC2	i	2.1
Cc1nn(Cc2ccc(C(=O)NC3CCCCC3)o2)c(C)c1Br	i	-0.1
CN(c1ccccc1)S(=O)(=O)c1cc(C(=O)N2CCN(c3ccccn3)CC2)ccc1Cl	i	0.8
Cc1ccc(CNC(=O)CN(C)S(=O)(=O)c2cccc3cccnc23)cc1	.	1.5

2 of these compounds, reformatted.
> O=C(COc1ccccc1)Nc1nc2ccccc2[nH]1
  VCAM-1 up = i
  Proteasome disasm = 0.9
> Cn1c(=O)oc2cc(S(=O)(=O)N3CCCC(C(=O)NCC4COc5ccccc5O4)C3)ccc21 (stereo not given)
  VCAM-1 up = i
  Proteasome disasm = 0.8

Next structures follow:
SMILES	VCAM-1 up	Proteasome disasm
CCOCCc1nnc(NC(=O)c2ccc(OC)c(OC)c2)s1	i	-1.6
O=C(NCc1ccccn1)c1nnc(Cc2ccc(Cl)cc2)o1	.	-2.2
CCOC(=O)C1CCN(C(=O)c2sc3nc(-c4ccc(F)cc4)cn3c2C)CC1	.	-0.1
Cn1c(Cc2ccccc2)nnc1SCC(=O)c1ccc(Br)s1	i	3.2
COc1ccc(CNC(=O)c2cc(C3CC3)on2)cc1	.	0.8
CC(=O)OC(C(=O)NC1CCCCC1)c1ccncc1 (stereo not given)	i	-0.1
COc1ccc(S(=O)(=O)n2nc(OC(=O)c3ccccc3Br)cc2N)cc1	.	-2.4
CCOc1ccccc1C(=O)Nc1cc(=O)n(C)c(=O)n1C	i	-0.4
CCOc1ccc(N2C(=O)CC(N3CC(C)OC(C)C3)C2=O)cc1 (stereo not given)	i	0.9
COc1ccccc1NC(=O)c1ccc(NC(=O)CSc2nnnn2C)cc1	i	0.0
CC(C)c1c(C#N)c(N)nc(SCC(=O)c2cc3ccccc3oc2=O)c1C#N	.	6.2
COc1ccc(CCNC(=O)C2CC(=O)N(c3ccccc3)C2)cc1OC (stereo not given)	i	0.5
Cc1cccc(-c2nc(CS(=O)CC(=O)NCCCSC3CCCCC3)c(C)o2)c1 (stereo not given)	.	0.8
COc1ccc(N2CCN(C(=O)CNC(=O)Cn3c(C)cc4ccccc4c3=O)CC2)cc1	.	0.2
Cc1cc(N2CCN(C)CC2)nc2ccc(NC(=O)CCC(=O)NCc3ccco3)cc12	.	0.5
CCN1C(=O)CSc2ccc(C(=O)NCCCN3CCOCC3)cc21	.	-0.8
CN(C)/C=c1\sc2c(C#N)cc(C(=O)c3ccc(Br)cc3)n2c1=O	i	-3.7

High-throughput results deposited in PubChem BioAssay by several laboratories.
